Screening results (PubChem)
SARS PLP yeast = SARS-CoV PLP inhibition in yeast; Potency, µM (doses to about 32.9 µM), inactives show at the highest dose activity, positive = growth rescue; S. cerevisiae expressing SARS-CoV PLpro, growth rescue; control for the full effect not named in the record; actives 0.19% (n = 330,000); active means well fitted rising curve with a large enough effect; inconclusive means small, poorly fitted or top-dose-only effect; inactive means no such curve, though single readings can be large or run the other way; further: 0% is about no effect; nearly all actives have a fitted effect of over 55% in size; growth read by luminescence after 48 h
MARV entry inh = Marburg virus entry inhibition. Marburg virus pseudotyped entry inhibition, cell reporter; control for the full effect not named in the record; about a third of the inactives were read at about 46 µM. Potency, µM (top dose mostly 37.8 µM), inactives show at the highest dose activity change, negative = inhibition, usual class: inhibitors. actives 1.8% (n = 300,000); active = well fitted inhibition curve with a large enough effect; inconclusive = small, poorly fitted or top-dose-only effect, or effect the other way; inactive = flat fitted curve, though single readings scatter; tested in HEK293 cells; about a fifth of its hits are not listed in these tables; further: on the % scale 0 is the no-effect control and ±100 the full control effect; luciferase read-out
Lassa entry inh = inhibitors of Lassa virus binding or cell entry; Lassa virus pseudotype entry inhibition, cell reporter; control for the full effect not named in the record; Potency, µM (doses to about 37.9 µM), for the others: at the highest dose activity change, negative = inhibition, hits mostly inhibitors; actives 1.2% (n = 300,000); active means well fitted inhibition curve with a large enough effect; inconclusive means small, poorly fitted or top-dose-only effect, or effect the other way; inactive means flat fitted curve, though single readings scatter; tested in HEK293 cells; further: on the % scale 0 is the no-effect control and ±100 the full control effect; nearly all actives have a fitted effect of over 50% in size; luciferase read-out
NS1 inh = inhibitors of influenza NS1 protein function; Potency, µM (series often up to 46.1 µM), inactives show at the top dose activity, positive = more growth; actives 0.4% (n = 270,000); S. cerevisiae slowed by influenza A NS1, growth recovery by OD600; active means well fitted rising curve with a large enough effect; inconclusive means small, poorly fitted or top-dose-only effect; inactive means no such curve, though single readings can be large or run the other way; further: nearly all actives have a fitted effect of over 50% in size
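Compounds were scored for reversing the slow growth caused by influenza A NS1 in S. cerevisiae, measured by optical density at 600 nm. Assay medium contained 2% galactose at pH 6.0; NS1-free yeast of the same strain were the positive control.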
Cruzain noTriton = cruzain (T. cruzi) inhibition without detergent; P25779; purified cruzain, Z-FR-AMC fluorescence, no detergent; actives 2.3% (n = 200,000); Potency, µM, inactives show max response, negative = inhibition, actives largely listed as inhibitors;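 further: plate controls were enzyme without inhibitor for no effect and buffer without enzyme for full effect; nearly all actives have a fitted effect of over 40% in size; top concentration of the series not given in the record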
Target sequence (P25779 123-467 limits assumed): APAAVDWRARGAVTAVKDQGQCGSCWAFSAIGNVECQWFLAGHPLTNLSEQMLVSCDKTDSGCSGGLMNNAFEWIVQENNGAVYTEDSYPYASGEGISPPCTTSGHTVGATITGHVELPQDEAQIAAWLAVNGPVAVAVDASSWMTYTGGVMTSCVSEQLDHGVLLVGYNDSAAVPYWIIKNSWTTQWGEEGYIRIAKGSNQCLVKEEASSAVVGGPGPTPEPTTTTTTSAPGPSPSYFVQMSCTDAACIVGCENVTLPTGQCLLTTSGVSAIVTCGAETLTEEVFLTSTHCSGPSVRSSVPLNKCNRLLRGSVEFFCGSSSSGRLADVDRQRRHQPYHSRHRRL
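Purified cruzain at 1.5 nM, pre-incubated 15 min with compound at room temperature in 100 mM sodium acetate pH 5.5, 5 mM DTT, 0.00005% Triton X-100. Reaction started with 2 uM Z-FR-AMC; AMC fluorescence increase over 60 s gives rate.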
StopGo reporter = FMDV 2A StopGo reporter, luciferase signal; human cells with a luciferase reporter of 2A StopGo recoding; control for the full effect not named in the record; Potency, µM (series often up to 57.9 µM), inactives show top-dose signal change, negative = less light; actives 1.2% (n = 410,000); AID 1159524; active = well fitted falling curve with a large enough effect; inconclusive = small, poorly fitted or top-dose-only effect; inactive = no such curve, though single readings can be large or run the other way; tested in HEK293T cells; further: on the % scale 0 is the no-effect control and ±100 the full control effect; nearly all actives have a fitted effect of over 45% in size; luciferase light after 4 h
RE007 growth inh = less growth of the S. pombe RE007 Vpr strain. S. pombe RE007 Vpr strain, BacTiter-Glo ATP luminescence, 24 h; control for the full effect not named in the record. Potency, µM (highest dose often 92.2 µM), inactives show at the top dose activity change, negative = less growth. actives 0.21% (n = 360,000); active = well fitted falling curve with a large enough effect; inconclusive = small, poorly fitted or top-dose-only effect; inactive = no such curve, though single readings can be large or run the other way;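 further: on the % scale 0 is the no-effect control and ±100 the full control effect; nearly all actives have a fitted effect of over 50% in size; the assay follows cell death caused by Vpr and the record does not say whether a fall means rescue or toxicity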
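Fission yeast strain RE007, carrying one chromosomally integrated HIV-1 vpr copy, was seeded at OD 0.01 in PMG+AL medium with 23 nL pinned compound. After 24 h at 30 °C and 99% humidity, viability was read by BacTiter-Glo luminescence.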
Cruzain Triton = blocks cruzain activity in presence of Triton detergent; P25779; purified cruzain, Z-FR-AMC fluorescence, 0.01% Triton; Potency, µM, inactives show max response, negative = inhibition, most hits filed as inhibitors; actives 0.43% (n = 200,000);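 further: plate controls were neutral wells for no effect and buffer without enzyme for full effect; nearly all actives have a fitted effect of over 40% in size; top concentration of the series not given in the record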
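Compounds were screened in titration against cruzain (1.5 nM) with 0.01% Triton X-100 to counter colloidal aggregation. Activity was the AMC fluorescence increase over 60 s after adding 2 uM Z-FR-AMC at pH 5.5.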
Active calls of the source: *; ? = inconclusive; / = no result given; [ ] = remark or other dose. Unless noted, the call rests on the fitted dose curve; in most records, active means well fitted curve in the direction sought with a large enough effect; inconclusive means small, poorly fitted or top-dose-only effect, or another doubt; inactive means no such curve, though single readings can be large; an effect the other way counts as inactive or inconclusive. Potency means the concentration at half of the fitted maximal effect.

SMILES	SARS PLP yeast	MARV entry inh	Lassa entry inh	NS1 inh	Cruzain noTriton	StopGo reporter	RE007 growth inh	Cruzain Triton
COc1cccc(NC(=O)Cc2ccc(NC(=O)N3CCCCc4ccccc43)cc2)c1	/	/	14%[46.1 µM]	/	-15%	-10%	/	-3.6%
CC(=O)Nc1nnc(SCC(=O)c2ccc(F)cc2)s1	-1%	19%[46.1 µM]	-1%	-3%	/	32%[activator]	10%	/
Cc1cc(N2C(=O)CCC2=O)ccc1NC(=O)c1cccs1	-1%	11%	4%	16%	5%	3%	11%	4.8%
O=C(OCC(=O)N1CCCc2ccccc21)c1cc(S(=O)(=O)N2CCOCC2)ccc1F	-8%	10%[46.1 µM]	2%	/	/	-19%	16%	/
Cc1ccc(OCCCC(=O)Nc2sc3c(c2C(N)=O)CCC(C)C3)cc1 (stereo not drawn)	/	/	7%[46.1 µM]	/	23%	4%	/	-22%
CN(C)c1nc(NN)nc(Nc2ccc(F)cc2)n1	8%	?	-28%	7%	/	-16%	-15%	/
Cc1sc2ncn(CC(=O)OCC(=O)NC(C)(C)C)c(=O)c2c1C	6%	?	-2%	-13%	-7%	7%	4%	0.8%
Cc1ccc(N2C(=O)c3ccccc3C2C(=O)c2ccc(C)c(C)c2O)cc1 (stereo not drawn)	-3%	-7%	?	1%	/	13%	3%	/
C=CCn1c(SCC(=O)c2cc(C)n(C)c2C)nnc1-c1ccncc1	1%	-9%	-1%	8%	/	-25%	5%	/
COc1ccc(OC)c(CNC(=O)c2cc(-c3ccc(Cl)s3)nc3ccccc23)c1	/	11%[46.1 µM]	13%[46.1 µM]	/	-8%	-12%	/	-2.7%
CCOc1ccc(C(C)=O)cc1COC(=O)c1cccnc1SC	-1%	25%[46.1 µM]	-4%	/	/	-12%	-4%	/
CC(C)n1cc(-c2nc(C(=O)NN)cs2)c(=O)n(Cc2ccccc2)c1=O	0%	4%	-4%	?	/	-15%	11%	/
CCOc1ccc(Cc2nnc(SCC(=O)Nc3ccc(OC)cc3)n(N)c2=O)cc1	-2%	-19%	?	/	/	-2%	5%	/
O=C(Cn1c(=O)oc2cc(S(=O)(=O)NCc3ccccc3)ccc21)NCc1ccccc1Cl	/	/	-24%[46.1 µM]	/	-5%	11%	/	-2.7%
O=C(Nc1cccc([N+](=O)[O-])c1)C1CCN(C(=O)Cc2ccccc2)CC1	-2%	26%	3%	2%	/	-18%	-27%	/
CCC(CC)N1CCN(S(=O)(=O)c2ccc(OC)cc2)CC1	5%	?	-12%	16%	/	-4%	2%	/
CCn1cc(C(=O)NCc2ccc(C)cc2)c(=O)c2cc(S(=O)(=O)N(C)C)ccc21	0%	/	/	-5%	/	-5%	-2%	/
Cc1ccc(NCC(=O)N/N=C/c2cccn2C)cc1	1%	8%[46.1 µM]	-2%	3%	/	22%	13%	/
COc1ccc(CC(=O)NNC(=O)CCC(=O)Nc2cc(C)ccc2C)cc1	-2%	-8%[46.1 µM]	-8%	5%	/	-9%	-15%	/
CCCSc1nc(N2CCOCC2)c2c(c1C#N)CC(C)(C)SC2	-4%	-1%[46.1 µM]	-2%	2%	2%	-21%	7%	-2.3%
CN(C(=O)COc1ccc([N+](=O)[O-])cc1)C1CCS(=O)(=O)C1 (stereo not drawn)	-2%	14%[46.1 µM]	10%[46.1 µM]	2%	/	-2%	9%	/
COc1ccccc1CNC(=O)N1CCN(S(=O)(=O)c2ccc(Cl)cc2)CC1	2%	0%	-7%	-8%	/	-10%	8%	/
COCCOC(=O)C1=C(N)OC(C)=C(C(=O)OC)C12C(=O)Nc1ccccc12 (stereo not drawn)	-3%	14%	2%	-13%	16%	/	-4%	11%
C/C(CC(=O)Nc1ccc(Cl)c(C(F)(F)F)c1)=N\NC(N)=S	0%	?	?	5%	/	-17%	-12%	/
CC[C@@H]1C=C(C)C[C@H](C)C[C@H](OC)[C@H]2O[C@@](O)(C(=O)C(=O)N3CCCC[C@H]3C(=O)O[C@H](/C(C)=C/[C@@H]3CC[C@@H](O)[C@H](OC)C3)[C@H](C)[C@@H](O)CC1=O)[C@H](C)C[C@@H]2OC	-38%	6.5µM*	?	-27%	?	/	/	-0.7%

The listing continues.
SMILES	SARS PLP yeast	MARV entry inh	Lassa entry inh	NS1 inh	Cruzain noTriton	StopGo reporter	RE007 growth inh	Cruzain Triton
COc1ccc(-c2cc3nc(C)c(CCC(=O)NCc4ccc(F)cc4)c(C)n3n2)c(OC)c1	0%	12%[46.1 µM]	-8%	/	/	-26%	5%	/
CCOc1ccc(C(=O)COc2ccc(NC(C)=O)cc2)cc1	-2%	-1%	-17%	-13%	?	5%	1%	-6.8%
CCOC(=O)COc1ccc(Br)cc1/C=C\c1[nH]c(=O)[nH]c(=O)c1[N+](=O)[O-]	2%	-14%	12%	10%	?	35µM*	7%	-5.8%
O=C(CCC(=O)Nc1ccccc1)NNC(=O)c1ccccc1Cl	0%	5%	0%	/	/	11%	1%	/
COc1ccc(Nc2nc(N)nc(CSc3nc(C)cc(C)n3)n2)cc1	1%	?	?	-2%	/	24%	2%	/
CCOC(=O)C(C)n1cnc2c(nnn2Cc2ccc(C)cc2)c1=O (stereo not drawn)	0%	19%	-42%[14.3 µM]	4%	1%	-19%	9%	1.0%
CCOc1cc(Br)ccc1S(=O)(=O)NCc1ccccc1	-2%	2%	-1%	-59%	-2%	52%[activator]	2%	-7.9%
Cc1onc(-c2ccccc2Cl)c1C(=O)NCc1nc(-c2ccc(C(F)(F)F)cc2)no1	-10%	?	10µM*	3%	/	?	0%	/
COCCOC(=O)c1c(C)nc(SCC(=O)Nc2ccc(C)cc2)c(C#N)c1-c1ccco1	0%	-26%[46.1 µM]	5%	5%	?	0%	0%	-2.7%
COc1ccc(OC)c(CNc2ncnc3onc(C)c23)c1	/	/	4%[46.1 µM]	/	-5%	-10%	/	-2.1%
CCc1nc(NCc2ccccc2)c(C#N)c2c1CCCC2	-19%	/	/	-5%	14%	-22%	-6%	-9.7%
CCOc1ccc(-n2c(C)nc3cc(C(=O)NCc4ccc5c(c4)OCO5)ccc32)cc1	-17%	-1%	?	-16%	7%	17%	16%	-6.1%
Cc1ccc(NC(=O)C2CCN(S(=O)(=O)c3ccc(Cl)c(C(F)(F)F)c3)CC2)nc1	6%	7%[46.1 µM]	-18%	/	/	2%	5%	/
O=C(NCCN1CCN(c2ccccc2)CC1)Nc1ccccc1Br	0%	5%[46.1 µM]	3%[46.1 µM]	2%	-10%	?	-3%	-1.0%
COc1ccc(CNC(=O)CC23CC4CC(CC(C4)C2)C3)cc1OC	1%	?	13%	-2%	/	-1%	5%	/
CCOC(=O)Cn1nc(C)n(-c2ccc(Cl)cc2)c1=O	1%	-3%[46.1 µM]	13%	3%	/	11%	20%	/
CCNc1cc(N2CCN(C)CC2)ccc1[N+](=O)[O-]	0%	4%[46.1 µM]	7%[46.1 µM]	-1%	/	8%	-4%	/
Cc1ccc(-c2nnc(-c3ccc4ccccc4c3)o2)cc1	/	?	2%	0%	-3%	20%	10%	0.2%
Cc1cccc2c1CC(C)(C)N/C2=C\C(N)=O	1%	14%	9%	10%	-16%	-25%	-9%	-2.0%
CCOC(=O)N1CCN(C(=O)c2cn(C)c3ccc(S(=O)(=O)N(C)C4CCCCC4)cc3c2=O)CC1	-1%	/	/	-5%	/	50%[activator]	2%	/
Cc1ccc(-n2c(=O)c(C#N)cc3c(=O)n4ccccc4nc32)cc1C	9%	-17%	9%	14%	-2%	-24%	4%	-7.0%
Cc1ccc(-c2ncccc2OC(=O)C23CC4CC(CC(C4)C2)C3)cc1	-15%	19%	-29%	-34%	-2%	/	9%	-6.1%
Clc1cc(Cl)cc(C2=NCCC(c3ccccc3)O2)c1 (stereo not drawn)	-8%	-13%	1%	-9%	-14%	/	/	-6.6%
CC(=O)c1cccc(Oc2cc(NN3CCCCC3)c([N+](=O)[O-])cc2[N+](=O)[O-])c1	12%	/	/	-17%	/	-4%	-15%	/
O=C(O)c1ccc(NS(=O)(=O)c2cc(Cl)ccc2Cl)cc1	0%	2%	19%	2%	-3%	-6%	-3%	4.2%

The list goes on:
SMILES	SARS PLP yeast	MARV entry inh	Lassa entry inh	NS1 inh	Cruzain noTriton	StopGo reporter	RE007 growth inh	Cruzain Triton
Cc1ccc(NC(=O)COC(=O)CNC(=O)c2ccc3ccccc3c2)c([N+](=O)[O-])c1	4%	-2%	2%	-20%	3.2µM*	-7%	-9%	7.1µM*
COCCNC(=O)C(NC(=O)C1CCCCC1)C(C)C (stereo not drawn)	-8%	5%[46.1 µM]	-9%[46.1 µM]	/	/	15%	8%	/
CSc1ccccc1NC(=O)CN(C)C(=O)c1ccc2c(c1)OCCO2	/	3%	-7%	1%	/	9%	3%	/
Cc1nn(C)c(C)c1S(=O)(=O)NC1CCCC1	-7%	8%[46.1 µM]	9%	8%	-5%	3%	16%	1.7%
CCOc1ccc(-c2nnc(SCC(=O)Nc3cccc(Cl)c3C)o2)cc1	/	7%[46.1 µM]	-14%[46.1 µM]	/	?	-23%	/	-5.7%
Cc1ccc(S(=O)(=O)N(C)CC(=O)Nc2cccc3c2CCCC3)cc1	3%	5%	0%	-1%	0%	-28%	-6%	-3.0%
CCN1CCN(C2=NC(=O)/C(=C/c3ccc(C)o3)S2)CC1	-1%	6%	-19%	0%	-8%	41%[activator]	-17%	-5.1%
CC(=O)N(C)N(C)c1cc(C)nc(N)n1	-1%	-1%	25%	-5%	/	-1%	-11%	/
C/C(=N\NC(=O)c1ccccc1)C1C2C=CC(C2)C1(C)C (stereo not drawn)	-1%	1%	?	2%	/	14%	-3%	/
O=C(Cn1nc(-c2ccc(Cl)cc2)ccc1=O)N1CCN(c2ccccc2)CC1	-15%	-14%	-3%	7%	?	-7%	6%	-3.9%
COCCCNC(=O)C1CC(=O)N(CCc2ccc(F)cc2)C1 (stereo not drawn)	10%	6%	-1%	18%	/	-2%	-4%	/
CSc1ccc(C2NC(=O)c3c(sc4c3CCN(C)C4)N2)cc1 (stereo not drawn)	16%	/	/	?	-15%	4%	7%	-16%
